NPYLR7 ag – mosquito NPYLR7 agonism; HEK293T NPYLR7/Galpha15, GCaMP6s calcium fluorescence; activation, % at 10 µM; 0.15% of 270,000 active; AID 1259423; in the data active = activation above about 40%;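 also: 0% = vehicle and 100% = reference agonist at the receptor; some compounds past the cut are filed as inactive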
NPYLR7 ag max-min – recorded beside NPYLR7 ag, whose call it bears; activation, %; measured here: Max-Min RFU normalised activation; some inactives read as strong as hits;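 span of the calcium signal over five minutes; 0% = vehicle and 100% = native peptide agonist; compound fluorescence can raise it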
Active calls of the source: *. A portion of the library (hit frequency here may not be typical).

molecule | NPYLR7 ag | NPYLR7 ag max-min
Cn1ncc2c(Nc3ccccc3)nc(Nc3ccccc3)nc21 | 3.5 | 1.3
Cc1cc(=O)n2c(C(=O)Nc3ccc(Cl)cc3)c(C(=O)Nc3ccc(Cl)cc3)sc2n1 | -1.9 | -5.7
Cc1cc(C)n(C(=O)c2nn(C)cc2[N+](=O)[O-])n1 | -7.0 | -6.5
Cc1cccc(NC(=O)COc2coc(CN3CCc4ccccc4C3)cc2=O)c1C | 4.5 | 1.8
CCOC(=O)C1(Cc2ccccc2F)CCCN(C(=O)CCc2cnn(C)c2)C1 (centres undefined) | 5.5 | 0.9
CS(=O)Cc1cccc(C(=O)N=c2sccn2Cc2ccc(Cl)cc2Cl)c1 (centres undefined) | 7.0 | 4.3
O=C(Nc1ccccc1)N1CCn2cccc2C1c1cccs1 (centres undefined) | 11.0 | 5.4
CCNC(=O)C1(C)CCCN(CC(=O)c2ccc(OC)cc2)C1 (centres undefined) | 0.7 | -1.0
Ic1cnccc1N1CCCCC1 | 1.8 | 5.3
COc1ccc(C(=O)Nc2c(F)cccc2N2CCCC2)cn1 | 6.1 | 4.0
CCC(Nc1ccc(CNC(C)=O)cc1)c1ccc(F)cc1 (centres undefined) | 9.1 | 5.8
CC(C)CN(CC1CCCO1)C(=O)CN1CC2=C(C1=O)C(c1ccc(C(C)(C)C)cc1)NC(=O)N2C (centres undefined) | 0.9 | 6.2

Grouped by structure, the compounds so far with a Cl atom (2)
molecule | NPYLR7 ag | NPYLR7 ag max-min
Cc1cc(=O)n2c(C(=O)Nc3ccc(Cl)cc3)c(C(=O)Nc3ccc(Cl)cc3)sc2n1 | -1.9 | -5.7
CS(=O)Cc1cccc(C(=O)N=c2sccn2Cc2ccc(Cl)cc2Cl)c1 (centres undefined) | 7.0 | 4.3

The main list resumes; the two compounds before the break are reprinted first.
molecule | NPYLR7 ag | NPYLR7 ag max-min
CCC(Nc1ccc(CNC(C)=O)cc1)c1ccc(F)cc1 (centres undefined) | 9.1 | 5.8
CC(C)CN(CC1CCCO1)C(=O)CN1CC2=C(C1=O)C(c1ccc(C(C)(C)C)cc1)NC(=O)N2C (centres undefined) | 0.9 | 6.2
Cc1nc2sccn2c(=O)c1NC(=O)C1CCCC1 | 8.3 | 0.5
CCOC(=O)[C@@H]1[C@H](c2ccccc2)[C@@H](N(Cc2cc(C)n(C)n2)Cc2cc(C)n(C)n2)[C@H]2CCCCN21 | 21.9 | 30.8
Cc1nc(C)c(Cc2cccc(C(F)(F)F)c2)c(N2CCN(C(=O)Nc3cccc(C)c3C)CC2)n1 | 2.8 | 1.6
O=[N+]([O-])c1cccc(CSc2ccc3nnc(-c4ccccn4)n3n2)c1 | -3.4 | -4.4
c1ccc2c(c1)ccc1nnc(-c3ccc4c(c3)OCO4)n12 | -6.4 | -6.9
CCn1c(SCC(=O)Nc2c(C)cc(C)cc2C)nc2c(c1=O)SC(C)C2 (centres undefined) | 0.8 | 0.4
CC(C)Cc1c(C#N)c(SCC(=O)Nc2ccc(Br)cc2)nc2c1CCCC2 | -4.3 | -9.2
COc1ccc2c(=O)c(Oc3ccc(Cl)cc3)coc2c1 | -1.1 | -2.1
CSc1ccccc1C(=O)C1CCCN(C(=O)c2cnsn2)C1 (centres undefined) | 18.0 | 9.2
CC(C)OC(=O)c1c(NC(=O)Cn2cnc([N+](=O)[O-])n2)sc2c1CCCC2 | -15.4 | -16.7
CC(=O)NCCNC(=O)C1(C)CCN1Cc1ccccc1Cl (centres undefined) | 10.8 | 3.6
CC(C)CN(CCC(=O)O)c1nc(-c2ccco2)nc2cc(Cl)ccc12 | 0.6 | 11.9
O=C1NCCc2c1[nH]c1ccc(OCc3ccccc3)cc21 | 6.4 | 3.9
O=S(=O)(CNC(=S)c1ccccc1)c1ccccc1 | 5.4 | 5.4
CC(=O)c1[nH]c(C)c(C(=O)NC2CCCC2)c1C | 1.3 | -2.6
CC1(C)CC2CC(C)(CN2c2nc(N)c(C#N)c(CC#N)c2C#N)C1 (centres undefined) | 6.8 | 3.9
Cc1cnc(-c2cccnc2)nc1C1CCCN(C(=O)/C=C/c2cccs2)C1 (centres undefined) | 3.5 | -1.0
CCn1c(=O)c(C(=O)NCCCOC)nn(-c2ccc(S(C)(=O)=O)cc2)c1=O | 9.6 | 12.8
COc1ccc(CC(=O)Nc2nnc(-c3cc4ccccc4o3)o2)cc1 | 8.4 | 4.5
NC1(C(=O)N2CCC(C(O)Cc3ccccc3)CC2)CC1 (centres undefined) | -0.4 | -13.7
CNc1cncc(-c2cncc(OC)c2)n1 | 4.5 | 2.6
CCN(C)c1ccc(-c2noc(Cc3cc(C)[nH]n3)n2)cc1 | 4.1 | 1.8
Cc1cc(C)n(-c2ccccc2)c2nc(=O)[nH]c(=O)c1-2 | 1.4 | -1.7
CC(C)N(C(=O)Cn1c(=O)n(Cc2ccccn2)c(=O)c2ncccc21)c1ccccc1 | 5.0 | 1.9
COC(=O)CCC(=O)N1CCc2ccccc2C1c1ccc(Cl)cc1 (centres undefined) | -6.7 | -4.5
COc1cc(-c2nc3ccccn3c2NC(C)(C)CC(C)(C)C)ccc1OC(=O)C1CCCCC1 | 5.3 | 3.8
CS(=O)(=O)c1ccc(Cl)c(NC(=O)CSCc2ccccc2Cl)c1 | 2.6 | 9.7
NC(=O)c1ccc(NC(=O)C2Cc3cc(Cl)ccc3O2)cc1 (centres undefined) | -9.4 | -8.8
Cc1ccc(-c2nn(-c3cc(N4CCCCC4)ccc3[N+](=O)[O-])c(=O)c3ccccc23)cc1C | -4.8 | -8.3
CC(Nc1nc2c(c(=O)[nH]c(=O)n2C)n1CCCc1ccccc1)c1ccccc1 (centres undefined) | 0.0 | 32.3
Cc1nnc(NC(=O)c2ccc(C(=O)c3ccccc3)cc2)s1 | 4.3 | 3.8
COc1ccc(C(=O)N2CCC(n3c(=O)oc4cccc(C)c43)CC2)cc1 | -17.0 | -11.4
O=c1ccc(Br)cn1Cc1nnc(-c2cccs2)o1 | 1.1 | 5.7
Cc1cc(NC(=O)c2cc(=O)c3ccccc3o2)n(-c2nc3c(c(=O)[nH]2)CCC3)n1 | -3.5 | -1.2
CCc1ccc(NC(=O)N2CCSC2c2ccc(OCc3ccccc3)cc2)cc1 (centres undefined) | -1.8 | 5.9
Cc1n[nH]c(C)c1CCCCCCOc1ccc(F)cc1 | -7.3 | 11.0
O=C(Nc1cccc(C(F)(F)F)c1)c1ccc2nc(-c3ccccc3)c(-c3ccccc3)nc2c1 | -14.4 | -19.1
O=C(Cc1noc2ccccc12)Nc1ccc(C(F)(F)F)cc1 | -3.3 | -7.8
CCN1CCN(c2c(CN(CCOC)S(=O)(=O)c3ccc(C)cc3)c(C)nn2-c2ccccc2)CC1 | 0.8 | 13.1
C1=CC2(CC2)C2C1C1C3CC3C2C12CC2 (centres undefined) | 1.2 | 59.6
Nc1cc(-c2cccc(C(F)(F)F)c2)nn1-c1ccc(C(=O)NCCNc2ccc([N+](=O)[O-])cn2)cc1 | -0.4 | -0.4
CNS(=O)(=O)c1cc(-c2nnc(Nc3ccc(OCC(N)=O)cc3)c3ccccc23)ccc1C | -18.1 | -21.1
CC(C)(C)c1ccccc1SCc1ccc(C(=O)N2C3CCC2CC(Oc2cccc(C(F)(F)F)c2)C3)cc1 (centres undefined) | 9.4 | -0.4
CCCc1nc(N(C)Cc2nc3ccsc3c(=O)[nH]2)c2cnn(C)c2n1 | 8.9 | 7.4
COC(C)(OC)c1ccc(C#N)c(SCc2csc(Cc3ccc(Cl)c(Cl)c3)n2)n1 | 3.3 | -0.9
Cc1ccccc1C(NC(=O)C(=O)Nc1cccn(C)c1=O)C1CCCC(C)C1 (centres undefined) | 4.1 | 0.8
O=c1oc2cc(O)ccc2cc1-c1nnc(Nc2cccc(C(F)(F)F)c2)s1 | 1.9 | -2.2
Cc1occc1-c1nnc(SC(C)C(=O)c2ccccc2)n1C (centres undefined) | 3.4 | 9.2
COc1ccc2nc(SCC(=O)Nc3ccccc3F)[nH]c2c1 | -5.7 | -12.7
Cc1cc(C)nc(SCc2cc(=O)c(OC(=O)c3ccc4ccccc4c3)co2)n1 | -12.7 | -5.4
CCOc1ccc(N2C(=O)C3C(c4ccccc4)NN(Cc4ccccc4)C3C2=O)cc1 (centres undefined) | -1.1 | 2.9
Cc1ccc(C(O)c2ncc(-c3cccc(F)c3)[nH]2)cc1 (centres undefined) | 3.0 | 1.9
Cc1c(Cl)c([N+](=O)[O-])nn1CC(=O)Nc1ccccc1C(F)(F)F | 2.7 | -3.0
COc1ccc(C(=O)N2CCSC23C(=O)N(Cc2ccccc2C)c2ccccc23)cc1 (centres undefined) | -2.0 | 2.2
O=C(c1ccccc1OC(F)(F)F)N1CCC(Cc2ccc(F)cc2)CC1 | 1.2 | 5.7
COC(=O)c1cccc(NC(=O)N2CCN(CC(OCc3cccc(C)c3)c3ccc(Cl)cc3)CC2)c1C (centres undefined) | 4.2 | -1.6
COC(=O)CCCC(=O)NCC1Cc2cc(C(=O)OC)ccc2O1 (centres undefined) | 6.5 | 4.1
CC1(C(=O)NCc2ccccc2Br)CCN1C(=O)c1ccco1 (centres undefined) | 4.0 | -0.5
CCOc1nc(-c2ccc(C)cc2)n(-c2cccc(NC(=O)Nc3ccc(F)cc3F)c2)n1 | 1.7 | 8.2
CC1=C(C(=O)OCCc2ccccc2)C(c2ccccc2Cl)NC(=O)N1C (centres undefined) | 1.3 | -0.4

Remaining list, next part.
molecule | NPYLR7 ag | NPYLR7 ag max-min
OCCCn1cnc(-c2ccccc2)c1-c1ccc(Sc2ncn[nH]2)o1 | 4.8 | 0.7
CC1CCc2sc(C(=O)N3CCN(CCc4cccs4)CC3)cc2C1 (centres undefined) | 17.0 | 13.0
CCn1ncc(NC(=O)C2C3CCC(O3)C2C(=O)O)c1C(=O)N1CCOCC1 (centres undefined) | -0.1 | 41.9
CCN(CC)C(=O)Oc1ccc2c(ccn2Cc2ccccc2Cl)c1NC(=O)C(C)Oc1ccccc1 (centres undefined) | -0.9 | -2.9
CC(=O)Nc1cccc(C(=O)N2CCOC(COc3cccc(C(F)(F)F)c3)C2)c1 (centres undefined) | -8.2 | -8.5
CNC(=O)[C@@H]1C[C@@H](N)CN1C(=O)CCc1ccc(-c2ccc(C)cc2)o1 | 2.6 | -4.8
COc1ccc(Cc2nnc(N3CCCC3)[nH]c2=O)cc1 | 5.1 | 3.5
CCC(CN1CCCC1)NC(=O)Nc1nc(C)c(C)s1 (centres undefined) | 9.6 | 4.3
Oc1ccccc1-c1nc(Cl)c2ccccc2n1 | 7.2 | 5.6
COC(=O)C1Cc2ccccc2CN1Cn1c(SC)nc2ccccc21 (centres undefined) | 4.9 | 11.4
C=c1ccccc1=c1[nH]/c(=C/c2coc3ccc(Cl)cc3c2=O)c(=O)o1 | -1.4 | -4.7
O=C(NC(c1ccc2c(c1)OCO2)c1ccccn1)C1CCN(Cc2ccc(Cl)c(Cl)c2)CC1 (centres undefined) | 5.2 | -6.9
O=C(C1CC1)N1C[C@H]2[C@H](O)[C@@H]3C[C@H](c4ccc(F)cc4)[C@@H](O3)[C@H]2C1 | 8.3 | 19.0
O=C(/C=C/c1ccccc1)N(CC(=O)N1CCc2sccc2C1c1ccc(Cl)cc1Cl)CC1CCCO1 (centres undefined) | 10.2 | 8.0
CCOCC(=O)N1CCN(C23CC4CC(CC(C4)C2)C3)CC1 | 13.7 | 4.1
Cc1nc(CN2CCN(C(=O)c3cn(CCN4CCCCC4)nn3)CC2)cs1 | 2.0 | -1.7
COc1ccccc1C=C1SC(=S)N(CCC(=O)Nc2nnc(C)s2)C1=O | -5.0 | -9.1
CC(O)CN1CCN(C(=O)C2CCCN(c3nccs3)C2)CC1 (centres undefined) | 7.0 | 4.9
Cc1nc(C)c(C(=O)N2CCN(c3ccc4nnc(-c5ccco5)n4n3)CC2)s1 | 1.6 | -0.4
Cc1cc2nc(Cc3ccccc3)n(CC(=O)O)c2cc1C | 24.5 | 17.3
Cn1cc(CN2CCC(N3CCSCC3)CC2)c(-c2ccc(Oc3ccccc3)cc2)n1 | 28.6 | 27.4
O=C1N[C@H](C(=O)O)CS1 | -9.3 | -15.8
Cc1ccc(NC(=O)CNC(=O)C2CC(=O)N(CC(C)C)C2)c(F)c1 (centres undefined) | -0.3 | -9.2
CCC(C)NC(=O)Cn1nc(C)c([N+](=O)[O-])c1C (centres undefined) | 11.8 | 11.9
O=c1c(-n2nnc3ccccc32)c2oc3ccccc3nc-2c2ccccc12 | 10.5 | 5.1
CN(C)c1ccccc1-c1cc(N2CCN(S(=O)(=O)c3ccc(Cl)cc3)CC2)ncn1 | -8.6 | -8.4
COc1ccc(NC(=O)c2cnn3c(C(F)(F)F)cc(-c4ccco4)nc23)c(OC)c1 | -5.8 | -7.5
O=C1C=C(/C=C/c2cccs2)C[C@H](c2cccs2)[C@H]1n1cnc([N+](=O)[O-])n1 | 6.4 | 0.6
Fc1ccccc1Cc1noc(CN2CCC(Oc3ccccc3F)CC2)n1 | 4.1 | -0.1
CC(C)Cn1c(SCC(=O)Nc2ccccc2)nnc1-c1ccco1 | -6.9 | 12.8
CCOC(=O)Cn1c(=O)c2c(nc3n2CCCN3c2ccc(OCC)cc2)n(C)c1=O | 9.2 | 8.0
O=C(c1ccc2ncsc2c1)N1CCc2c(sc3[nH]c(=O)n(Cc4ccccc4)c(=O)c23)C1 | -4.2 | -8.9
CCCCOc1ccccc1-c1cc(C(=O)N/N=C\c2cccnc2)[nH]n1 | 6.5 | 4.3
O=S(=O)(Nc1nc2ccccc2s1)c1ccccc1 | 12.7 | 4.7
CCOC(=O)N1CCN(C(c2ccc(F)cc2)C2Sc3nc(-c4ccco4)nn3C2=O)CC1 (centres undefined) | 1.9 | 0.5
C=CCc1cccc(/C=N\NC(=O)CSc2nnc(-c3ccccc3)n2-c2ccccc2)c1O | -3.5 | -8.9
